Screens (PubChem BioAssay)
VACV Venus inh = vaccinia inhibition (Venus reporter). Vaccinia virus Venus reporter expression, fluorescence. Potency, µM (titrated, usually from 36.5 µM), for the others: top-dose activity change, negative = inhibition, hits mostly inhibitors. 0.46% of 330,000 active. AID 720580; active means well fitted inhibition curve with a large enough effect; inconclusive means small, poorly fitted or top-dose-only effect; inactive means no such curve, though single readings can be large or run the other way; tested in A549 cells; further: nearly all actives have a fitted effect of over 30% in size; inactives centre near -10
Vaccinia mCherry = inhibitors of vaccinia virus infection (mCherry reporter signal) | Vaccinia virus mCherry reporter infection, fluorescence; about a quarter of the inactives have no number | Potency, µM (series often up to 36.5 µM), for inactives: at the highest dose activity change, negative = inhibition, actives largely listed as inhibitors | 0.63% of 310,000 active; active = well fitted inhibition curve with a large enough effect; inconclusive = small, poorly fitted or top-dose-only effect; inactive = no such curve, though single readings can be large or run the other way; tested in A549 cells; further: nearly all actives have a fitted effect of over 35% in size; inactives centre near -10
Starred values were filed as active, the others as inactive; i = inactive; ? = inconclusive; . = no result given; & = joins results of further samples; [ ] = dose if it differs, or a comment. On the % scale 0 is the no-effect control and ±100 the full control effect; potency means the concentration at half of the fitted maximal effect.

Structure,Vaccinia mCherry,VACV Venus inh
CCN(c1ccccc1)S(=O)(=O)c1ccc(C(=O)Nc2nnc(C3CC3)o2)cc1,-28%,-28%
CCOC(CNC(=O)c1ccc2c(c1)ncn2-c1cccc(F)c1)OCC,i,-15%
CCOc1ccc(C(=O)NCC(=O)NCC(c2ccc(OC)cc2)N2CCOCC2)cc1OCC (stereo not drawn),-1%,-21%
Cc1ccc(Cn2cc(CN3CC(N4CCSCC4)CS3(=O)=O)nn2)cc1 (stereo not drawn),9%,3%
COC(=O)/C=C/CSC1=N/C(=C/c2ccc(-n3cncn3)cc2)C(=O)N1,-19%,-19%
O=C(NCc1ccc2c(c1)CCN2C(=O)c1ccncc1)c1ccccc1Br,-15%,-18%
CCC(Cc1ccccc1)NS(=O)(=O)c1csc(C(N)=O)c1 (stereo not drawn),i[7.34 µM],-16%[7.34 µM]
CC(C)(C)n1nnnc1C(c1ccccc1)N1CCN(c2ncc(C(F)(F)F)cc2Cl)CC1 (stereo not drawn),i,-5%
CC1C(=O)NN=C1C(=O)N/N=C/c1ccco1 (stereo not drawn),0%,2%
COc1ccc(NC(=O)Cn2c(=O)n(-c3cc(C)cc(C)c3)c(=O)c3oc4ccccc4c32)cc1OC,-4%,-16%
COC(=O)c1ccc(C2C(Oc3ccccc3C)C(=O)N2CCc2ccc(OC)c(OC)c2)cc1 (stereo not drawn),i[1.46 µM],-15%
c1cncc(C2SCCCS2)c1,i,-1%
COc1cccc(S(=O)(=O)N2CCN(Cc3ccc4c(c3)OCO4)CC2)c1,-5%,-11%&8%
COc1cc(NC2c3ncccc3C(=O)N2Cc2ccco2)cc(OC)c1OC (stereo not drawn),-10%,-15%
O=C(NCCN1CCN(C(=O)c2cccc(OC(F)F)c2)CC1)c1cccc(OC(F)F)c1,i,-13%
C#CCOCCOCCOCCNc1nc(N2CCN(C(=O)[C@H](CCCCN)n3cc([C@@H](N)C(C)CC)nn3)CC2)nc(N2CCN(C(=O)[C@H](Cc3ccc(O)cc3)n3cc([C@@H](N)C(C)CC)nn3)CC2)n1 (stereo partly drawn),-11%,5%
CC(C)n1c(-c2cccnc2)nc2cnccc21,i,-11%
COCCn1c(SCC(=O)c2c(N)n(C)c(=O)n(C)c2=O)nc2ccccc21,-9%,-3%
Cc1cc(C)c(C(=O)CC(=O)c2ccccc2Cl)c(O)c1,i,-24%
CCOC(=O)c1c(C)[nH]c(C)c1S(=O)(=O)N1CCCC(C(=O)Nc2ccc(OC)c(OC)c2)C1 (stereo not drawn),-15%,-4%
Cc1nnc(SCC(=O)Nc2ccccc2C(=O)NC2CC2)s1,-7%,-4%
CCCCNS(=O)(=O)c1ccc2nc(SCC(=O)c3ccccc3OC)[nH]c2c1,-21%,-15%
CCOc1ccc(NS(=O)(=O)c2ccc(OCC(=O)NCCCOC)cc2)cc1,-15%,-12%
O=C(O)CC1(O)C(=O)N(Cc2ccccc2)c2ccccc21 (stereo not drawn),i,-5%
CCc1ccc(NC(=O)c2ccccc2NC(=O)C2CCCO2)cc1 (stereo not drawn),-22%,-17%
CN(CCC#N)C(=O)COC(=O)/C=C/c1ccc2c(c1)OCO2,i,-10%
C[C@H]1CN([C@@H](C)CO)S(=O)(=O)c2ccc(Br)cc2O[C@H]1CN(C)C(=O)CN(C)C,-3%,-9%
CCN1C(=NCCc2ccccn2)N[C@@H](c2cccc(C(F)(F)F)c2)C(C(=O)OC)=C1C,10%&-8%,-10%&-21%
O=C(Oc1c(CN2CCOCC2)cc(Cl)c2cccnc12)c1ccccc1F,7.9µM*,10µM*
COCCCn1c(=N)c(C(=O)NCc2ccco2)cc2c(=O)n3ccccc3nc21,7%,4%

Entries of single compounds from above. Order of values: Vaccinia mCherry, VACV Venus inh
Results for O=C(NCc1ccc2c(c1)CCN2C(=O)c1ccncc1)c1ccccc1Br → -15%, -18%
Results for Cc1ccc(Cn2cc(CN3CC(N4CCSCC4)CS3(=O)=O)nn2)cc1 (stereo not drawn) → 9%, 3%
Results for CCc1ccc(NC(=O)c2ccccc2NC(=O)C2CCCO2)cc1 (stereo not drawn) → -22%, -17%
Results for O=C(Oc1c(CN2CCOCC2)cc(Cl)c2cccnc12)c1ccccc1F → 7.9µM*, 10µM*
Results for COCCn1c(SCC(=O)c2c(N)n(C)c(=O)n(C)c2=O)nc2ccccc21 → -9%, -3%

Sorted by number of heavy atoms (low to high): 3 of the compounds above
Structure,Vaccinia mCherry,VACV Venus inh
CCCCNS(=O)(=O)c1ccc2nc(SCC(=O)c3ccccc3OC)[nH]c2c1,-21%,-15%
CC(C)(C)n1nnnc1C(c1ccccc1)N1CCN(c2ncc(C(F)(F)F)cc2Cl)CC1 (stereo not drawn),i,-5%
COc1ccc(NC(=O)Cn2c(=O)n(-c3cc(C)cc(C)c3)c(=O)c3oc4ccccc4c32)cc1OC,-4%,-16%

Further compounds:
Structure,Vaccinia mCherry,VACV Venus inh
CC(CCc1ccccc1)NCCC#N (stereo not drawn),i,2%
O=S(=O)(c1ccccc1)N1CCN(S(=O)(=O)N2CCCCCC2)CC1,i,-11%
Cn1c(=O)c2c(nc(OCCc3ccccc3)n2C)n(C)c1=O,1%,-2%
CCC(=O)N1N=C(c2ccc(OC)cc2)CC1c1cn(-c2ccccc2)nc1-c1cccs1 (stereo not drawn),-9%,-22%
O=C(/C=C/NNC(=O)c1ccc(Br)cc1)c1ccccc1,-17%,-16%
CCN(C(=O)c1cc2c(=O)n3ccccc3nc2n1CCCOC)C1CCCCC1,i,-18%
Cc1ccc(S(=O)(=O)N2CCCOC2CNC(=O)C(=O)NCCN2CCOCC2)cc1 (stereo not drawn),-16%,-10%
Cc1ccc(N2CC(C(=O)Nc3cccnc3)CC2=O)cc1Cl (stereo not drawn),13%,-3%
CCn1c(-c2ccccc2F)nc2cc(NC(C)=O)cc(C(=O)N3CCCC3c3nccs3)c21 (stereo not drawn),-10%,5%
O=S(=O)(NCCCCCNS(=O)(=O)c1ccc(F)cc1)c1ccc(F)cc1,?,?
COc1ccc2nc(NC(=O)C3CC(=O)N(c4ccccc4)C3)sc2c1 (stereo not drawn),?,-25%
O=C(O)Cn1ccc2cc(S(=O)(=O)N3CCCCCC3)ccc21,i,-5%
CC(C(=O)Nc1ccc(F)c(F)c1)N1CCN(C)CC1 (stereo not drawn),-4%,-7%
FC(F)(F)c1cccc(-c2noc(CN3CCOCC3)n2)c1,i,-16%
O=C(c1cccc2c1C(=O)N(Cc1cccnc1)C2)N1CCN(c2ccccc2)CC1,-10%,-3%
CC1CCN(CC(CS(=O)(=O)c2ccc([N+](=O)[O-])cc2)N2CCC(C)CC2)CC1 (stereo not drawn),?,?
COCCOC(=O)N1CCCCC1c1cc(C(=O)NCc2ccc(Cl)c(Cl)c2)no1 (stereo not drawn),i,-12%
COc1cccc(OC(=O)CSc2nnc(-c3ccccc3OC)o2)c1,-12%,-9%
Cc1ccc(C(=O)COC(=O)c2ccccc2NC(=O)c2ccccc2)cc1[N+](=O)[O-],-9%,-28%
Cc1ccc2oc(=O)n(CC(=O)OC(C)C)c2c1,.,6%
C[C@@H]1CN([C@@H](C)CO)S(=O)(=O)c2ccc(Br)cc2O[C@@H]1CN(C)C(=O)c1ccc(F)cc1,-3%,-16%
CC1(C)O[C@@H]2C[C@H]3[C@@H]4C[C@H](F)C5=CC(=O)C=C[C@]5(C)[C@H]4[C@@H](O)C[C@]3(C)[C@]2(C(=O)CO)O1,i,-20%
COc1ccccc1NC(=O)CSc1nnc(CNC(=O)c2ccccc2F)o1,-14%,-3%
O=c1c2cccnc2nc2n1CCCCC2,i,-8%
Oc1cc2c(cc1CN1CCN(c3ccccc3)CC1)OCO2,-29%,-12%
CCc1ccccc1Nc1nn2c(=O)c3ccc(C(=O)Nc4ccc(OC)cc4)cc3nc2s1,-24%,-18%
CCOC(=O)CN1CC23C=CC(O2)C(C(=O)Nc2ccc4c(c2)OCO4)C3C1=O (stereo not drawn),i,-8%
CN(Cc1ccccn1)C(=O)c1cc(COc2ccc(F)cc2Cl)on1,?,0%
CCOC(=O)Cc1ccc(NCc2ccc(Cl)cc2)cc1,i,-7%
COc1cccc(N2CC(O)Cn3c2nc2c3c(=O)n(CCCc3ccccc3)c(=O)n2C)c1 (stereo not drawn),.,?
O=C(CN1CCN(c2ccccc2O)CC1)NNC(=O)c1ccc(Cl)cc1,-15%,-4%
Clc1ccccc1COc1ccccc1-c1nnco1,-12%,-11%
COc1cccc(CNS(=O)(=O)c2ccc3c(c2)CCN3C(=O)C2CCC2)c1,-10%,-7%
COc1ccccc1NC(=O)CN(c1ccc(C)cc1)S(=O)(=O)c1c(C)n[nH]c1C,?,-29%
Cc1ccc(NC(=O)c2cc(S(=O)(=O)N3CCc4ccccc43)cn2C)cc1C,i,-12%
COc1cccc(CNC(=O)c2cc3cc(C)ccc3n2C)c1,6%,8%
CC1(C(=O)NS(=O)(=O)c2ccccc2)CCN1C(=O)CC(c1ccccc1)c1ccccc1 (stereo not drawn),36%[activator],-2%
N#CCCNC(=O)CCN1CCCCC1,.,-9%
CC(C)c1ccc(NC(=O)Cn2c3ncccc3c(=O)n2-c2ccccc2)cc1,-1%,4%
CCOc1ccc(CCNC(=O)Cc2ccc(S(=O)(=O)N3CCOCC3)s2)cc1OCC,0%,-17%
O=C(N1CCOCC1)C(F)(F)C(=O)N1CCOCC1,-3%,2%
Cc1cc(N2CCC(C(N)=O)CC2)nc(-c2ccccc2)n1,.,-23%
CCc1nn(CC(=O)NCc2cccc(OC)c2)c(=O)c2cc3cc(F)ccc3n12,3%,-6%
N#Cc1c(SCC(N)=O)nsc1SCc1ccccc1Cl,?,?
C=CCn1c(SCC(=O)N2CCOCC2)nc2sc3c(c2c1=O)CCCC3,-36%,-22%
CC(=C1SC(=S)NC1=O)c1ccccc1,-20%,9%
O=C1c2ccccc2-c2cc(Br)ccc2NC1O (stereo not drawn),-9%,-12%
Cc1ccccc1Nc1c(-c2ccc(N3CCOCC3)cc2)nc2ccc(Br)cn12,-18%,-9%
COc1ccccc1CNC(=O)c1ccc2c(=O)n3c(nc2c1)CCCCC3,i[7.34 µM],-14%[7.34 µM]
COc1cccc2cc(C(=O)C3=C(O)C(=O)N(CCN(C)C)C3c3ccc(F)cc3)oc12 (stereo not drawn),-3%,1%
O=c1[nH]c2ccc(S(=O)(=O)N3CCN(c4ccccc4)CC3)cc2[nH]c1=O,-3%,-10%
CC(=O)C1C(c2ccccc2Cl)NC(=O)NC1(O)C(F)(F)F (stereo not drawn),10%,-6%
Cc1ccc(C(=O)N/C(=C/c2ccccc2)C(=O)NC(Cc2ccccc2)C(=O)O)cc1 (stereo not drawn),i,1%
CCOc1cccc(N2C(=O)CC(NNC(=O)c3ccc(Br)o3)C2=O)c1 (stereo not drawn),i,6%
Cc1cc(=O)oc2cc(OC(=O)c3ccccc3)ccc12,-4%,-3%
CCC(=O)Nc1ccc(-c2nnc(SCC(=O)NCC3CCCO3)n2C)cc1 (stereo not drawn),-4%,-16%&-14%
O=C1/C(=C/c2cccnc2)SC(=S)N1C1CCS(=O)(=O)C1 (stereo not drawn),-10%,2%
O=C1O[C@@H]([C@H](O)CO)C(O)=C1O,-10%,-8%
CC[C@H]1C(O)C[C@H]2CCN3C(=O)CCC[C@H]1[C@H]23 (stereo partly drawn),-8%,0%
COc1c(C(=O)Nc2ccccc2N2CCOCC2)cc2ccccc2c1Br,-20%,-22%

Some values from the entries so far.
VACV Venus inh result of CC[C@H]1C(O)C[C@H]2CCN3C(=O)CCC[C@H]1[C@H]23 (stereo partly drawn) = 0%
VACV Venus inh result of Cc1ccc(NC(=O)c2cc(S(=O)(=O)N3CCc4ccccc43)cn2C)cc1C = -12%

Additional entries
Structure,Vaccinia mCherry,VACV Venus inh
CCCC(=O)NC(Nc1c(C)n(C)n(-c2ccccc2)c1=O)C(Cl)(Cl)Cl (stereo not drawn),i,-11%
O=c1[nH]c(=O)n(C2OC(CO)C(O)C2O)cc1Br (stereo not drawn),-10%,-9%
COc1ncnc2c1ncn2CCCN[C@H](C)c1cccc2ccccc12,-7%,-18%
O=C(CSc1nnc(-c2ccccc2)o1)c1ccc2c(c1)OCCO2,.,-14%
O=C(NCC1COc2ccccc2O1)c1cccc(S(=O)(=O)NCc2ccccc2)c1 (stereo not drawn),-3%,-20%
CN(C(=O)CSc1nnc(-c2ccco2)o1)C1CCCCC1,.,-13%
Cc1ccc(C)c(Cn2c(=O)cc(C(F)(F)F)c3c(C)nn(C)c32)c1,-4%,-2%
CC(=O)c1ccc(OCc2ccc(Oc3c(Cl)cccc3[N+](=O)[O-])cc2)cc1,-9%,-1%
Cc1cc(C)c(N(CC(=O)NCc2ccccc2)C(=O)c2csnn2)c(C)c1,-2%,-14%
COc1cccc(-n2cc(C(=O)Nc3ccccc3C(N)=O)c3ccccc3c2=O)c1,-19%,-10%
Cc1cc(N2CCN(C)CC2)nc2ccc(NC(=O)Nc3cccc(Cl)c3)cc12,14%,-24%

A second format for part of the listing above:
Every second line gives: Vaccinia mCherry | VACV Venus inh
COc1cccc(S(=O)(=O)N2CCN(Cc3ccc4c(c3)OCO4)CC2)c1
→ -5% | -11%&8%
COc1cc(NC2c3ncccc3C(=O)N2Cc2ccco2)cc(OC)c1OC (stereo not drawn)
→ -10% | -15%
